TAR Tat displ: HIV-1 TAR-Tat binding disruption | HIV-1 TAR RNA, Tat peptide displacement FRET; hits give high values | z-score (test concentration not listed) | hit rate 0.6% among 100,000;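 further: score is relative to mean and SD of negative controls; some compounds called inactive have numbers as strong as hits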
CDC25B-CDK2 inh: human CDC25B-CDK2/CyclinA binding inhibition | hit rate 0.72% among 94,000 | AID 1259370 | z-score (no concentration beside the values) | HTRF CDC25B-CDK2/CyclinA binding, anti-His/anti-Flag; hits give high values;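 further: score is relative to mean and SD of negative controls; strong numbers were not always called active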
The depositor's hits bear a star; · = not tested or not shown; & = joins results of further samples.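 How the source made its calls: active means z-score from 3 up in half or more of its runs; inactive means the rest.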 Some of the compounds tested; the hit share may differ from the screen's.

Under each structure – TAR Tat displ | CDC25B-CDK2 inh
CC(C)OC(=O)C1C2c3ccccc3C(c3ccccc32)C1C(=O)OC(C)C (configuration not stated)
 : 0.15 | -1.8
COc1ccc(C2NCc3ccccc3-n3cccc32)cc1OC (configuration not stated)
 : 0.59 | 0.44
NN=C(N)N
 : · | -0.41&-0.03
CC1(C)CC(n2[nH]c(=O)c3c2NC(=O)CSC3c2ccc(F)cc2)CCO1 (configuration not stated)
 : 0.9 | 1.8
O=C(N[C@H]1CN2CCC1CC2)c1ccc(Cl)cc1
 : · | -0.66
COc1ccc(-c2cccc3c2CCNC3)cc1
 : -0.9 | -3.1
CCC1c2cccn2-c2ccccc2CN1C(=O)NC1CCCC1 (configuration not stated)
 : 1 | ·
CCNc1nc(Cl)nc(NCC)n1
 : 0.01 | ·
NC(=O)c1cc(N2CC2)c([N+](=O)[O-])cc1[N+](=O)[O-]
 : · | -1.7
COc1cccc(C2N3CCCN23)c1OC (configuration not stated)
 : 0.31 | -3.9
O=S1(=O)N(Cc2ccccc2)CCCN1Cc1ccc(F)cc1
 : 0.19 | ·
Cc1cccc(CN2CCCN(Cc3ccccc3C)S2(=O)=O)c1
 : -0.75 | ·
NC(=NCc1ccc(Cl)cc1)SCCCc1cnc[nH]1
 : 2.4 | ·
Cc1nn(-c2nc3ccccc3s2)c2c1C(c1cccs1)SCC(=O)N2 (configuration not stated)
 : 0.06 | -1.5
Cc1cc(C)c(C2=NCCNC(C(F)(F)F)=C2)c(=O)[nH]1
 : 1.6 | -1.8
N=C1c2ccccc2CN1CC(F)(F)F
 : · | -2.3
Clc1ccc(N2CC3CCC(C2)N3)nn1
 : · | -1.8
NC(N)=NC(N)=NCc1cccnc1
 : · | -1.6
CNC(=O)O/N=C(\C)Cc1nnn(-c2cc(C)on2)n1
 : · | -2.7
O=C(c1cc2cc3ccc(Cl)cc3nc2o1)N1CCC2(CC1)OCCO2
 : · | -1.4

Three structures out of the list, ordered by molar mass, low to high.
Under each structure – TAR Tat displ | CDC25B-CDK2 inh
NC(N)=NC(N)=NCc1cccnc1
 : · | -1.6
Clc1ccc(N2CC3CCC(C2)N3)nn1
 : · | -1.8
NC(=NCc1ccc(Cl)cc1)SCCCc1cnc[nH]1
 : 2.4 | ·

Next part:
Under each structure – TAR Tat displ | CDC25B-CDK2 inh
FC(F)(F)c1ccccc1CNCCc1c[nH]c2ccccc12
 : · | -0.76
CN1CCN(C(=O)COc2cc(-c3ccccc3)nc3ccccc23)CC1
 : · | -0.41
CCCOc1ccc(C2SCC(=O)Nc3c2c(=O)[nH]n3C(C)CCC)cc1 (configuration not stated)
 : 0.91 | -2.4
COc1ccc(OC)c(C2SCC(=O)Nc3n[nH]c(C)c32)c1 (configuration not stated)
 : 1.3 | 1.5
CC1=C(C)C(=O)C(CC[C@](C)(O)CCC[C@H](C)CCC[C@H](C)CCCC(C)C)=C(C)C1=O
 : 1.5 | ·
O=C1NC(=S)NC(=O)C1=Cc1ccc([N+](=O)[O-])s1
 : · | -1.9
COC(=O)c1sc2c(C)cc(Cl)c(C)c2c1C(=O)O
 : · | -3.3
Cc1sc2ncnc(N3CCN(C)CC3)c2c1C
 : 2.4 | ·
C=CC1CN2CCC1CC2[C@@H](OC(=O)c1ccc(OC)cc1)c1ccnc2ccccc12 (some centres not stated)
 : · | -0.67
C=CCOc1ccc(C=C(C#N)C#N)cc1
 : · | -0.59
CCOP(=O)(OCC)SCc1ccccc1
 : · | -0.28
c1ccc2c(c1)sc1ccccc12
 : 1.8 | ·
C[C@@H]1CC[C@@]2(NC1)O[C@H]1C[C@H]3C4CC=C5C[C@@H](O)CC[C@]5(C)C4CC[C@]3(C)C1[C@@H]2C (some centres not stated)
 : 1.8 | ·
CC(C)OP(=S)(OC(C)C)O[Si](C)(C)C
 : · | -0.23
Fc1ccccc1CN1CCN(Cc2ccc3c(c2)OCO3)CC1
 : 0.67 | 1.6
O=C(CCC(=O)N1CCOc2ccc(Cl)cc21)N1CCC2(CC1)OCCO2
 : · | -2
CC(C)n1c(C(=O)c2cccc3ccccc23)nc2ccccc21
 : · | 2
COc1ccc2[nH]cc(CCN)c2c1
 : 1.5&2 | -2.2&-0.8
CC12CN3CC(C)(CN(C1)C3c1ccncc1)C2=O (configuration not stated)
 : · | 1.2
CC1(C)CC(n2[nH]c(=O)c3c2NC(=O)CSC3c2ccccc2)CCO1 (configuration not stated)
 : -0.18 | -0.25
C1=C(c2c[nH]c3ccccc23)CCN(Cc2ccccc2)C1
 : 1.9 | -0.48
C=CC1CN2CCC1C(C(O)c1ccnc3ccc(OC)cc13)C2 (configuration not stated)
 : 0.69 | ·
CCN1CCc2nc3sc(C(N)=O)c(N)c3cc2C1
 : -0.53 | -1.5
O=C1CCCCC1CN1CCCCC1 (configuration not stated)
 : · | -0.46
CC(=O)OC[C@]12CCC(C)=C[C@H]1O[C@@H]1[C@H](O)[C@@H](OC(C)=O)[C@@]2(C)[C@@]12CO2
 : 1.7 | ·
COc1ccc(Br)cc1C1SCC(=O)Nc2n[nH]c(C)c21 (configuration not stated)
 : -0.19 | -0.65
CC(C)N1C(=O)c2ccccc2NS1(=O)=O
 : -1.3 | -0.88
O=C(Cc1ccccc1)N1CCN(Cc2ccccc2)CC1
 : · | -0.83
Cc1ccc(CN(C)C)c(OC(=O)N(C)C)c1
 : 0.46 | -1.9
CC(C)[N+](C)(CCC(C(N)=O)(c1ccccc1)c1ccccc1)C(C)C
 : 0.18 | ·
CCOc1cc(CNCCc2c[nH]c3ccccc23)cc(Cl)c1OCC
 : 1.1 | 3.8
COC(=O)c1cc(C=C(C#N)C#N)cn1C
 : · | -1.9
Fc1ccccc1CN1CCN(Cc2ccc(Cl)cc2)CC1
 : · | -1.3
O=c1oc2ccccc2c(O)c1C(c1ccsc1)c1c(O)c2ccccc2oc1=O
 : · | -1.3
C[C@@H]1C(=O)OC2[C@H](O)C34[C@@H]5OC(=O)[C@@]3(O[C@@H]3OC(=O)[C@H](O)[C@@]34[C@H](C(C)(C)C)[C@H]5O)[C@]21O (some centres not stated)
 : 2.4 | ·
Cc1cc(C(=O)Nc2ccc3c(c2)OCCO3)nn1C(C)(C)C
 : · | -1.1
Cc1ccc2[nH]c(C)c(C(O)CN3CCC(C)CC3)c2c1 (configuration not stated)
 : -0.05 | -1
NC(N)=Nc1ccc2[nH]c3c(c2c1)C[C@@]1(O)[C@H]2Cc4ccc(O)c5c4[C@@]1(CCN2CC1CC1)[C@H]3O5
 : · | 0.13
Cc1nn(-c2ccccc2)c2c1C(c1ccc(Cl)cc1)SCC(=O)N2 (configuration not stated)
 : · | -0.77
c1ccc(CC(NCc2ccco2)c2ccccc2)cc1 (configuration not stated)
 : 0.13 | 0.32
COc1cc(NC(=O)N2Cc3ccccc3-n3cccc3C2C)cc(OC)c1 (configuration not stated)
 : -0.52 | ·
CC(C)CC(NC(=O)C(Cc1ccccc1)NC(=O)CNC(=O)CNC(=O)C(N)Cc1ccc(O)cc1)C(=O)O (configuration not stated)
 : -0.04 | ·
N#CC(C#N)=NNc1ccccc1Br
 : · | -2.4
Cc1c(CCN)c2cccc3c2n1CCC3
 : -0.14 | -3.3
C=C1C2CC[C@@]3(C)[C@H](c4ccoc4)OC(=O)C[C@]13O[C@H]1CC(=O)C(C)(C)[C@H](C(OC(C)=O)C(=O)OC)[C@@]21C (some centres not stated)
 : 0.45 | ·
COP(=S)(OC)Oc1ccc(Sc2ccc(OP(=S)(OC)OC)cc2)cc1
 : 2.3 | ·
C[N+]1(C)C2CCC1CC(OC(=O)c1c[nH]c3ccccc13)C2 (configuration not stated)
 : · | -1.4
C=CCOC(=O)COc1cc(C)cc2oc(=O)c3c(c12)CCCC3
 : · | -1.3
NC(CP(=O)(O)O)C(=O)O (configuration not stated)
 : · | -1
COc1ccc(-n2nc(C)c3c2NC(=O)CSC3c2cc(OC)ccc2OC)cc1 (configuration not stated)
 : 0.28 | 0.94

Next part:
Under each structure – TAR Tat displ | CDC25B-CDK2 inh
CN1CC[C@@]23CCCC[C@@H]2[C@@H]1Cc1ccc(O)cc13
 : 0.83 | ·
CCc1ccc(-n2nc(C)c3c2NC(=O)CSC3c2ccc3c(c2)OCO3)cc1 (configuration not stated)
 : 0.68 | -1.1
CC(=O)N1N=C(c2ccc(C)nc2)OC1c1ccc(F)cc1 (configuration not stated)
 : 0.9 | ·
Cc1ccc(C)c(CN2CCCN(Cc3ccccc3)S2(=O)=O)c1
 : 0.3 | ·
O=C(Nc1[nH]ncc1Br)C(Cl)Cl
 : · | -1.8
O=C1c2ccccc2C(=O)c2ccccc21
 : 1.1 | ·
Fc1cc(F)cc(C2NCc3ccccc3-n3cccc32)c1 (configuration not stated)
 : 0.78 | 0.24
C[C@H]1CCC[C@@H](O)CCCCCc2cc(O)cc(O)c2C(=O)O1
 : 2.9 | ·
CC(=O)N[C@H]1CN2CC[C@H](O)[C@@H]2[C@@H](O)[C@@H]1O
 : 0.34 | ·
CC(C)(C)C(=O)C(Oc1ccc(Cl)cc1)n1cncn1 (configuration not stated)
 : 0.19 | ·

Random excerpt: 4 entries already listed, in no set order.
Under each structure – TAR Tat displ | CDC25B-CDK2 inh
CC(=O)N[C@H]1CN2CC[C@H](O)[C@@H]2[C@@H](O)[C@@H]1O
 : 0.34 | ·
O=C1c2ccccc2C(=O)c2ccccc21
 : 1.1 | ·
CN1CC[C@@]23CCCC[C@@H]2[C@@H]1Cc1ccc(O)cc13
 : 0.83 | ·
Cc1ccc(C)c(CN2CCCN(Cc3ccccc3)S2(=O)=O)c1
 : 0.3 | ·

(next part)
Under each structure – TAR Tat displ | CDC25B-CDK2 inh
CN1CCN(c2ncnc3cc(N)ncc23)CC1
 : -0.42 | -1.4
CCN1CCN(c2ncnc3onc(C)c23)CC1
 : -0.76 | ·
COc1cccc(CNC2CN3CCC2CC3)c1OC (configuration not stated)
 : 0.96 | -1.6
CCOP(=S)(OCC)Oc1ccc2c(C)c(Cl)c(=O)oc2c1
 : 1 | ·
CN1Cc2c(ccc3c2OCO3)C2C(O)Cc3cc4c(cc3C21)OCO4 (configuration not stated)
 : -6.5 | ·
CC1(C)C(=O)C=C[C@@]2(C)C1=C(O)C(=O)[C@]1(C)C2CC[C@@]2(C)[C@H](c3ccoc3)C[C@H]3O[C@]321 (some centres not stated)
 : 0.21 | ·
Cc1nn(-c2ccccc2)c2c1C(c1ccc3c(c1)OCO3)SCC(=O)N2 (configuration not stated)
 : -0.07 | 0.02
CCCC12CN3CC(C)(CN(C1)C3c1cccnc1)C2=O (configuration not stated)
 : · | -0.66
COC(=O)c1ccc(C2SCC(=O)Nc3n[nH]c(C)c32)cc1 (configuration not stated)
 : 2.1 | -0.97
O=c1c2ccccc2[nH]c(=S)n1-c1ccc(C(F)(F)F)cc1
 : · | 0.01
CC(C)=CC1C(C(=O)OCN2C(=O)C3=C(CCCC3)C2=O)C1(C)C (configuration not stated)
 : · | -2.5
c1ccc([P+]2(c3ccccc3)CCCS2)cc1
 : · | -1.2
CCN(CC)C(=O)c1ccc(N2C(=O)C(C)CS2(=O)=O)cc1Cl (configuration not stated)
 : 1.9 | -2.7
Cc1nn(-c2cccc(Cl)c2C)c2c1C(c1cccs1)SCC(=O)N2 (configuration not stated)
 : 0.98 | -0.38
O=C(c1ccco1)c1cn(Cc2ccc(Br)cc2)c2ccccc12
 : 1 | 4
CCCCOc1ccc(C2SCC(=O)Nc3n[nH]c(C)c32)cc1OC (configuration not stated)
 : 1.2 | -1.3
CN1C2CCC1CC(N=Cc1c(F)cccc1Cl)C2 (configuration not stated)
 : · | -0.93
C[C@@H]1CC[C@@]2(OC1)OC1C(O)C3C4CC[C@H]5C[C@H](O[C@@H]6O[C@H](CO)[C@H](O[C@@H]7O[C@H](CO)[C@@H](O)[C@H](O[C@@H]8OC[C@@H](O)[C@H](O)[C@H]8O)[C@H]7O[C@@H]7O[C@H](CO)[C@H](O)[C@H](O[C@@H]8O[C@H](CO)[C@@H](O)[C@H](O)[C@H]8O)[C@H]7O)[C@H](O)[C@H]6O)[C@H](O)C[C@]5(C)C4CC[C@]3(C)C1[C@@H]2C (some centres not stated)
 : 0.93 | ·
CN1CCN(c2cc(N)nc(N)n2)CC1
 : · | -0.73
CC(C)c1ccc(C2c3cccn3-c3ccccc3CN2C(=O)NCc2ccco2)cc1 (configuration not stated)
 : 0.76 | ·
O=C1N(c2ccccc2)C(c2cccnc2)N2CCCN12 (configuration not stated)
 : -0.24 | -0.5
COC(=O)[C@@H](N)CCCN=C(N)N[N+](=O)[O-]
 : · | 0.09
CCOc1ccccc1C1SCC(=O)Nc2c1c(C)nn2-c1nc(C)cc(C)n1 (configuration not stated)
 : 1.5 | -1.5
OC1CCCCC1N1CCC(c2ccccc2)CC1 (configuration not stated)
 : · | -0.48
CC[C@]1(O)CC[C@H]2[C@@H]3CCC4=CCCC[C@@H]4[C@H]3CC[C@@]21C
 : 1.4 | ·
O=C(O)C1CSC(c2cccnc2)N1 (configuration not stated)
 : 3.5* | ·
Cn1cnc(-n2oo2)c1C#N
 : · | -1.9
CC(=O)N1N=C(c2cncc(Br)c2)OC1c1ccccc1C (configuration not stated)
 : 2.2 | ·
NC(=O)CN1CCCC1=O
 : 0.49 | -0.69
COc1cc(C2C(C#N)=C(N)Oc3c2c(=O)oc2ccccc32)ccc1O (configuration not stated)
 : · | -1.5
Cc1[nH]nc2c1C(c1cc(F)ccc1F)SCC(=O)N2 (configuration not stated)
 : 0.34 | -1.3
Cc1nn(-c2ccccc2)c2c1C(c1cccs1)SCC(=O)N2 (configuration not stated)
 : -0.32 | -0.49
C[N+]1(C)C2CC(OC(=O)[C@H](CO)c3ccccc3)CC1C1OC12 (some centres not stated)
 : · | -1.4&-0.51
CN1C(=O)CC(c2ccccc2)Nc2ccccc21 (configuration not stated)
 : · | 0.09
C=C[C@H]1CN2CC[C@H]1C[C@H]2[C@H](O)c1ccnc2ccccc12
 : 0.15 | ·
C/C=C(/C)C(=O)O[C@H]1C(C)=C2[C@H]([C@@H]1OC(=O)CCCCCCC)[C@@](C)(OC(C)=O)C[C@H](OC(=O)CCC)[C@@]1(O)[C@H]2OC(=O)[C@@]1(C)O
 : 2.6 | -1.8
CCN(CC)S(=O)(=O)c1ccc2c(c1)nnn2C1CCN(Cc2ccccc2)CC1
 : 1.8 | ·
